Menin MLL FP FL: menin-MLL binding inhibition, fluorescein peptide. 290,000 tested, under 10 active. Fluorescence polarization, fluorescein-MLL peptide displacement from menin. FP activity change, % at 61.4 µM; inconclusive = falling polarisation curve, or a change in total fluorescence; inactive = total fluorescence flat and polarisation flat or rising; no compound was filed as active; the % refers to the polarisation; negative = inhibition;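 note: % of control where 0% means no effect; inhibitors lower the polarisation; unlabelled MLL peptide was the positive control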
TRPML1 inh: inhibitors of human TRPML1 channel. TRPML1-inducible cells, Ca2+ dye fluorescence, FDSS; stronger effect = lower value; inhibition of EC80 agonist-evoked calcium signal. Q9GZU1. activity change, negative = inhibition, % (no concentration beside the values). AID 624415. actives 0.02% (n = 390,000); in the data active means activity change below about -50%; inconclusive means about -30% to -50%; inactive means above about -30%;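 note: stimulus is agonist 54-4 at its EC80 concentration; % is set by controls: 0 for no effect and ±100 for the full control effect; compound concentration not given in the record; the text of the record puts the active cut at -80%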
Target sequence (Q9GZU1 whole entry, looked up): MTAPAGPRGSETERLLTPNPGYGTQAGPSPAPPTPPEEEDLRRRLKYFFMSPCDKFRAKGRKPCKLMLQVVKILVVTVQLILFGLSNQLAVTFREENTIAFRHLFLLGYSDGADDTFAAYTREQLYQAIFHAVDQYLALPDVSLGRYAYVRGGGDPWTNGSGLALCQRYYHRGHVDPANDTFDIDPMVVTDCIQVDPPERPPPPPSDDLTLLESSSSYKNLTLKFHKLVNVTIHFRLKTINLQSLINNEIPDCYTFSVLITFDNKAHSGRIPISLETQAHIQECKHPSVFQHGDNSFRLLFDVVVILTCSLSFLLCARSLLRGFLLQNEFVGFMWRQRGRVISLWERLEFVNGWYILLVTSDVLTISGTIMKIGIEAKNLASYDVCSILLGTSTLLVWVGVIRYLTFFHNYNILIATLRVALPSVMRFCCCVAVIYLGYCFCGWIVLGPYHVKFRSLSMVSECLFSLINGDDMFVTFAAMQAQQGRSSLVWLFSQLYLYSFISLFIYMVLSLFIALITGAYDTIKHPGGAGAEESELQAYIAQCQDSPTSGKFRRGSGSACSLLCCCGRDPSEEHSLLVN
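Calcium fluorescence in TRPML1-DL cells induced overnight with Tet: a 110 s read after compound pin addition, then a 110 s antagonist read after challenge with 54-4 at 4 uM final (EC80).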
TRPML1 agonist: agonists of human TRPML1 channel; Q9GZU1; TRPML1-expressing cells, Ca2+ dye fluorescence, FDSS; host cell line not named in the record; reference of the full effect not given here; activation, % (test concentration not listed); actives 0.12% (n = 410,000); in the data active = activation above about 50%; inconclusive = about 30% to 50%; inactive = below about 30%; note: 0% is about no effect; the text of the record puts the active cut at 80%
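In this qHTS format, compounds were pin-transferred onto Ca8-dye-loaded TRPML1-DL cells induced with Tet overnight, and intracellular Ca2+ fluorescence was recorded kinetically for 110 s after a 10 s baseline. A subsequent 4uM final 54-4 (EC80) addition followed by a second 110 s read served as the antagonist phase.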
TRPV1 PAM: potentiators of human vanilloid receptor 1 (TRPV1) | Q8NER1 | TRPV1-expressing cells, Fluo-8 calcium influx, capsaicin EC20 potentiation; host cell line not named in the record; control for the full effect not named in the record | potentiation, % at 8.33 µM | actives 0.02% (n = 320,000) | AID 540277; active means potentiation above 80%; inconclusive means 30% to 80%; inactive means below 30%; note: 0% is about no effect
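Fluo-8 calcium influx in TRPV1-expressing cells, kinetic read (ex 480/em 520 nm). Compound added and read 3 min for agonist activity, followed by capsaicin at EC20 final and 2 min further read for enhancement.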
Sfp PPTase inh: Sfp phosphopantetheinyl transferase inhibition; Q9F4F7; actives 3.5% (n = 310,000); Potency, µM, without a hit: max response, negative = inhibition, usual class: inhibitors; Biochemical Sfp PPTase activity, qHTS; active = well fitted inhibition curve with a large enough effect; inconclusive = small, poorly fitted or top-dose-only effect, or another doubt; inactive = no such curve, though single readings can be large or run the other way;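 note: the enzyme is Sfp with the accession as filed and its product quenches rhodamine fluorescence; potency is the fitted concentration of half-maximal effect; 0% = enzyme reaction without inhibitor and -100% = no enzyme wells; top concentration of the series not given in the record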
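Buffer: 50 mM Hepes-Na pH 7.6, 10 mM MgCl2, 0.01% Nonidet P-40, 0.01% BSA. Enzyme 15 nM, pre-exposed to compound 15 min; substrates then added and fluorescence change tracked over 30 min.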
PINK1 modulator: PINK1 expression modulation; PINK1 immunofluorescence, high-content cytometry, 24 h; Potency, µM (highest dose often 76.6 µM), without a hit: at the highest dose activation (PINK1 increase), most hits filed as activators; actives 0.2% (n = 410,000); active = well fitted activation curve with a large enough effect; inconclusive = small, poorly fitted or top-dose-only effect; inactive = flat fitted curve, though single readings scatter; cell line not stated here;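 note: potency is the fitted concentration of half-maximal effect; % of control where 0% means no effect; nearly all actives have a fitted effect of over 65% in size; a mitochondrial uncoupler was the plate control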
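Stable cell line treated 24 h with compounds at 5 concentrations (CCCP controls), then fixed and immunostained for PINK1 plus nuclear and cell stains; PINK1 immunofluorescence quantified by laser-scanning microplate cytometry.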
ClpP mod: qHTS Assay for Activators of ClpP. AID 651965, 2013. Potency, µM (doses to about 57.5 µM), for inactives: at the highest dose activity change, negative = active. purified B. subtilis ClpP, FRET peptide cleavage, 20 min. ATP-dependent Clp protease proteolytic subunit (Bacillus subtilis (strain 168)), P80244. actives 1.9% (n = 340,000); active = well fitted falling curve with a large enough effect; inconclusive = small, poorly fitted or top-dose-only effect; inactive = no such curve, though single readings can be large or run the other way; note: potency is the fitted concentration of half-maximal effect; the source files actives as falling curves though it sought activators and does not explain the sign; nearly all actives have a fitted effect of over 65% in size; many hits overshoot -100%
Target sequence (P80244 whole entry, looked up): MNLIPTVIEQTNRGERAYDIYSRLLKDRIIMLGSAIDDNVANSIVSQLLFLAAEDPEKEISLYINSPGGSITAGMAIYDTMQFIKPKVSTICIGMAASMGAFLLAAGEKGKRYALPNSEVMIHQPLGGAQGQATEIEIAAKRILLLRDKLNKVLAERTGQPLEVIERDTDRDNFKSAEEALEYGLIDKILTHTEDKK
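FRET quenching reversal measured ClpP activation: 10 microg/mL B. subtilis ClpP at pH 8 with the FRET-FV decapeptide, read at 430 nm after 320 nm excitation. The 20-min minus 0-min signal was scaled between DMSO/no-enzyme wells and ADEP (5.8 microM final).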
An asterisk follows results filed as active; ? = inconclusive; · = not tested or not shown; & = joins results of further samples; [ ] = remark or other dose.

SMILES	Menin MLL FP FL	TRPML1 inh	TRPML1 agonist	TRPV1 PAM	Sfp PPTase inh	PINK1 modulator	ClpP mod
Cc1ccc(OCCNC(=O)Cc2ccc(S(=O)(=O)N3CCOCC3)s2)cc1	·	-12	-0.2	8	14%	0.5%	1.1%
NS(=O)(=O)c1ccc(Cl)cc1[N+](=O)[O-]	0.5	-10	0.4	?	14%	0.1%	-3.4%
COc1ccccc1N1CCN(C(=O)c2cnn(C(C)(C)C)c2C2CCN(C(=O)OC(C)(C)C)CC2)CC1	·	-2	-0.3	·	·	0.3%	0.5%
NC(=O)C1=C[C@H](c2ccccc2)C[C@H](OCc2ccc(CO)cc2)O1	0.6	16	-0.4	20	4%	-0.1%	-2.5%
CSc1ccccc1NC(=O)CSc1nnc(Cc2ccccc2)o1	7.3	-1	-0.4	3	15%	-1.6%	·
CCc1ccc(NC(=O)CCCN2C(=S)NC(C)(C)CC2C)cc1 (stereo not given)	0.0	-5	0.1	-8	7%	0.9%	-1.4%
C=C[C@]1(C)C=C2CC[C@H]3[C@@](C)(CCC[C@@]3(C)C(=O)O)[C@@H]2CC1	·	-4	1.8	·	·	0.8%	-0.2%
CC1CC(C)CN(C(=O)Cn2nnc(-c3ccccc3)n2)C1 (stereo not given)	-2.3	29	0.0	?	16%	-1.9%	·
CCCCOc1ccc(CNC(=O)c2ccc(NC(=O)N3CCCCc4ccccc43)cc2)cc1	·	10	-0.9	·	·	0.9%	-0.9%
Cc1nc2cc(NC(=O)Nc3nccs3)ccc2n1C	1.2	5	0.2	6	?	·	-12%

Part of the list above, set out differently.
Sequence of screens – Menin MLL FP FL, TRPML1 inh, TRPML1 agonist, TRPV1 PAM, Sfp PPTase inh, PINK1 modulator, ClpP mod
- COc1ccccc1N1CCN(C(=O)c2cnn(C(C)(C)C)c2C2CCN(C(=O)OC(C)(C)C)CC2)CC1
    ·, -2, -0.3, ·, ·, 0.3%, 0.5%
- NC(=O)C1=C[C@H](c2ccccc2)C[C@H](OCc2ccc(CO)cc2)O1
    0.6, 16, -0.4, 20, 4%, -0.1%, -2.5%
- CSc1ccccc1NC(=O)CSc1nnc(Cc2ccccc2)o1
    7.3, -1, -0.4, 3, 15%, -1.6%, ·

The listing continues:
SMILES	Menin MLL FP FL	TRPML1 inh	TRPML1 agonist	TRPV1 PAM	Sfp PPTase inh	PINK1 modulator	ClpP mod
O=S(=O)(c1ccccc1)c1nc(-c2ccccc2Cl)oc1NCCN1CCOCC1	2.0	24	0.6	8	-7%	28%[38.3 µM]	-4.7%
Cc1ccc(-n2nnnc2SCC(=O)Nc2ncc(Cc3ccccc3Cl)s2)cc1	3.5	26	-0.5	-4	3%	?	1.7%
CC(C)NC(=O)N(C)C[C@@H]1Oc2c(NS(=O)(=O)c3ccccc3)cccc2C(=O)N([C@@H](C)CO)C[C@@H]1C	·	5	-0.8	·	·	-0.7%	-0.6%
Cc1ccc(C(=O)NNC(=O)C2CCN(c3ncccn3)CC2)cc1	-1.2	10	-0.7	10	24%	1.0%	·
Cc1ccc(C)c(NC(=O)Cn2cc(C(=O)C3CC3)c3ccccc32)c1	8.2	-24	1.7	6	-16%	2.0%	·
Cc1ccccc1NCC(=O)N/N=C\c1ccc2c(c1)OCO2	-2.8	-2	0.4	-16	10%	8.2%	·
CCCCn1c(N)c(N(CCOC)C(=O)CCNC(=O)NC23CC4CC(CC(C4)C2)C3)c(=O)[nH]c1=O	·	2	0.7	·	·	3.7%	-4.2%
Brc1ccccc1/C=N/Nc1ccc2ccccc2n1	4.1	-8	1.0	3	40µM*	15%	-7.9%
O=C(NCC(c1cccs1)N1CCOCC1)c1cc(F)cc(F)c1 (stereo not given)	·	29	-0.5	·	·	5.9%	-3.3%
CC[C@]12c3[nH]c4ccccc4c3CCN1C(=O)C(CC(=O)NCc1cccc(C(F)(F)F)c1)C[C@@H]2C(=O)N1CCN(C(=O)C2CC2)CC1 (stereo not given in full)	·	-9	-0.4	·	·	2.4%	1.0%
Cc1nn(-c2ccccc2)c(Cl)c1C(=O)Nc1nnc(C2CCCC2)s1	-2.7	9	1.5	-17	?	-1.1%	-5.8%
CC(C)(C)NC(=O)COC(=O)c1ccccc1Oc1ccccc1	-1.0	4	0.8	-10	22%	0.8%	-0.3%
COc1ccc(NS(=O)(=O)c2ccc(N3CCOCC3)c(NC(=O)c3ccc(F)cc3)c2)cc1	7.3	3	-0.5	5	-4%	2.3%	0.4%
COCc1c(C(=O)OCC(=O)c2c(N)n(CC(C)C)c(=O)n(C)c2=O)oc2ccccc12	-0.4	-11	-0.4	14	10%	-3.3%	-7.0%
CC(C)c1ccc(C(=O)N2CCOCC2c2cc(C(=O)Nc3ccccc3)no2)cc1 (stereo not given)	·	·	-0.2	·	·	9.7%	-4.7%
CCOC(=O)c1c(N)sc(N)c1C(=O)OCC	16	-12	1.8	18	?	4.8%	1.6%
Cc1cccc(/C=N/NC(=O)c2cc(-c3cccnc3)nc3c2c(C)nn3-c2ccccc2)c1	3.8	4	-0.4	5	-29%	?	4.3%
COc1cccc(C(=O)N/N=C/c2ccc(Oc3ccc([N+](=O)[O-])cn3)c(OC)c2)c1	4.5	65	1.8	-9	1%	3.3%	1.5%
CC(C)(C)NC(=O)CN(C(=O)CCC(=O)Nc1nccs1)c1ccc(F)c(Cl)c1	1.1	31	0.1	3	0%	1.7%	·
Cn1c(=O)c2c(nc(NCCCO)n2CCc2ccccc2)n(C)c1=O	5.2	-5	-0.1	1	19%	-0.9%	-0.7%
Cc1cc(NS(=O)(=O)c2ccc(NC(=O)COc3ccccc3Cl)cc2)no1	1.9	4	-1.4	12	-8%	0.7%	1.1%
CCc1nc2c(nnn2Cc2ccc(F)cc2)c(=O)[nH]1	3.6	-10	0.0	-3	9%	·	1.5%
Cc1ccc(C(=O)N2CCN(S(=O)(=O)c3ccc(C)c([N+](=O)[O-])c3)C2)cc1	-3.2	-9	-0.9	-13	20%	-0.1%	·
O=C(Nc1ccc(F)cc1)c1ccc2c(=O)n(CC3CCCO3)c(=S)[nH]c2c1 (stereo not given)	-0.5	6	0.9	-13	11%	15%	·
CN(C)c1ccc(Nc2cc(Cl)ncn2)cc1	-4.5	·	·	-9	-2%	-0.4%	1.4%
NCCCC[C@@H](C(=O)NCCCCCCCCCCC(=O)N1CCNCC1)n1cc(CCCC(=O)O)nn1	·	-11	0.4	10	·	1.4%	-0.6%
COc1ccc(S(N)(=O)=O)cc1C(=O)NCCCN1CCN(c2ccc(C)cc2)CC1	0.1	1	-0.9	-9	6%	-0.1%	0.2%
Cc1cn2c(=O)c(C(=O)N3CCN(c4ccccc4)CC3)cnc2s1	·	-6	-0.3	-13	·	-1.4%	-5.7%
COc1ccc2cc(CCNC(=O)c3cc4ccccc4o3)c(=O)[nH]c2c1	·	10	0.1	2	13%	3.2%	-17%
CN(C(=O)c1ccc(NC(=O)Cc2ccccc2)cc1)c1ccccc1	·	-1	0.7	·	·	0.3%	-4.2%
CCn1c(=O)c2sccc2n2c(CCCC(=O)N3CCN(c4ccc(OC)cc4)CC3)nnc12	·	-3	0.0	·	·	-0.1%	-3.7%
CC(C)(O)C#Cc1ccc([C@@H]2C[C@H]3CN(c4ccccc4)C(=O)[C@]34CCCN24)s1	15	-1	-0.7	-7	?	0.2%	·
O=C(O)C[C@H]1c2ccc(C(F)(F)F)cc2S(=O)(=O)N1C1CCCCC1	·	16	0.0&-0.5	·	·	1.4%	-2.7%&0.5%
CC(C)n1nnnc1SCC(=O)Nc1ccccc1F	-9.4	0	0.2	0	0%	4.7%	·
O=C(Nc1cc2c(cc1[N+](=O)[O-])OCCO2)c1cccnc1	·	25	0.1	·	·	2.8%	?
CCOC(=O)c1ccccc1NC(=O)COC(=O)C(Cc1c[nH]c2ccccc12)NC(C)=O (stereo not given)	·	14	-0.6	-13	·	-0.8%	16%
O=C(NC(=S)Nc1ccc2oc(=O)ccc2c1)c1cccc(F)c1	0.3	-2	0.5	7	-9%	3.2%	-2.0%
CCCCCC(=O)Nc1cccc(C2=NOC3(C2)C[C@H](C(N)=O)N(C(=O)[C@H]2CCC(=O)N2)C3)c1 (stereo not given in full)	1.1	22	0.7	15	11%	-2.0%	-2.0%
Cc1nnc(N2CCC(C(=O)NCCc3ccccc3Cl)CC2)c2nn(-c3ccccc3)c(C)c12	·	64	2.2	·	·	1.9%	3.9%
NNc1nc2c(F)cc(F)cc2s1	0.1	-11	0.6	16	-20%	3.9%	0.9%
CCCC[C@H]1CCCO[C@@](C(=O)NCCN2CCOCC2)(C(F)(F)F)C1	-0.3	26	0.5	·	-4%	·	·
Fc1ccc2[nH]c3c(NCc4ccccc4)ncnc3c2c1	-7.4	17	2.5	-3	?	?	0.5%
O=C(Cn1cnc2c(nnn2Cc2ccc(F)cc2)c1=O)Nc1ccccc1	1.0	-30	0.6	?	-13%	3.8%	·
COc1cccc(CNC(=O)CCC2CCCN(C(=O)c3ccccc3N(C)C)C2)c1 (stereo not given)	·	-21	0.4	-15	4%	-0.7%	-7.3%
COc1cc(C(=O)NNC(=O)c2ccccc2OCc2c(C)noc2C)cc(OC)c1OC	·	42	1.4	0	·	0.8%	-1.8%
O=S1(=O)[C@H]2C[C@@H]3CC[C@]2(CN1Cc1cccc(F)c1)O3	2.8	0	-0.4	2	11%	3.7%	0.8%
Cc1nn(C)c(C)c1CN(C)C(=O)c1cc2n(n1)C(C(F)(F)F)CC(c1cccs1)N2 (stereo not given)	?	-17	0.8	3	17%	-0.4%	-7.4%
CCOc1ccc(C(=O)NCCS(=O)(=O)N2CCN(c3ccccc3F)CC2)cc1OCC	·	-20	1.8	·	·	0.8%	0.5%
Cc1ccc(NC(=O)COC(=O)c2ccccc2-c2nc3ccccc3s2)c(C)c1	5.1	6	1.2	7	10%	1.2%	-15%
COc1ccc(OC)c(N(CC(=O)N2CCC(C)CC2)S(=O)(=O)c2ccc(OC)c(OC)c2)c1	6.3	15	0.0	3	4%	2.4%	0.2%
COc1ccccc1N1CCN(S(=O)(=O)c2ccc3c(c2)oc(=O)n3C)CC1	3.9	13&-10	0.9&-0.9	-1	8%	1.8%&-0.1%	-2.0%

Assay outcomes as filed in PubChem.
